NPYLR7 agonist – activates Aedes aegypti NPYLR7 receptor; HEK293T NPYLR7/Galpha15, GCaMP6s calcium fluorescence; AID 1259423; 270,000 compounds, 0.15% hits; activation, % at 10 µM; in the data active means activation above about 40%;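 further: 0% = vehicle and 100% = reference agonist at the receptor; some compounds past the cut are filed as inactive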
NPYLR7 agonist max-min – recorded beside NPYLR7 agonist, whose call it bears; activation, %; measured here: Max-Min RFU normalised activation; some inactives read as strong as hits;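 span of the calcium signal over five minutes; 0% = vehicle and 100% = native peptide agonist; compound fluorescence can raise it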
Active calls of the source: *; & = joins results of further samples. Not all compounds are listed; count on the stated rates, not on these rows.

canonical_smiles,NPYLR7 agonist,NPYLR7 agonist max-min
Cc1nnc(NCCO)[nH]c1=O,9,6
Cc1cccn2c(=O)nc(SCC(=O)NC(C)(C)C)nc12,10,9
CCOC(=O)CCC(=O)N[C@H](Cc1ccccc1)C(=O)N1CCC(C(=O)NCc2cccc(OC)c2)CC1,32,24
CN1C(=O)[C@H](OC(N)=O)[C@@H](C(=O)Nc2ccccc2)C12CCN(C(=O)Cc1ccccc1)CC2,6,6
CC(NC(=O)c1cn[nH]n1)c1ccc(-c2cccnc2)cc1 (stereo not given),9,8
c1cnn(CCC2CCCCN2c2nc3nonc3nc2N2CCOCC2)c1 (stereo not given),7,0
CNCC1COc2ccccc2O1 (stereo not given),3,8
O=C(O)c1cc(O)c(O)c(O)c1,3,-12
CO[C@H]1C=CO[C@@]2(C)Oc3c(C)c(O)c4c(O)c(c5c(c4c3C2=O)NC2(CCN(CC(C)C)CC2)N=5)=NC(=O)/C(C)=C\C=C/[C@H](C)[C@H](O)[C@@H](C)[C@@H](O)[C@@H](C)[C@H](OC(C)=O)[C@@H]1C,-3,-10
COc1ccc(-c2cc(C(=O)NCCc3ccc(OC)c(OC)c3)n(-c3ccc([N+](=O)[O-])cc3)n2)c(OC)c1,12,9
O=C(c1ccc(Cl)cc1Cl)N1CCCC(OCc2cc(F)ccc2F)C1 (stereo not given),-3,-1
COc1ccc(-c2noc(C3CCN(C(=O)c4c(-c5c(Cl)cccc5Cl)noc4C)CC3)n2)cc1,4,1
COc1cccc(CC2CN(CCCn3nnnc3C)CCO2)c1 (stereo not given),4,2
O=C1NCC2(CCCN(C(=O)c3cc4c([nH]c3=O)CCCC4)CC2)O1 (stereo not given),15,8
Cc1ccc(S(=O)(=O)N2CCC(C(NC(=O)c3cccc(C)c3)C(=O)N3CCOCC3)CC2)cc1 (stereo not given),-3,4
CCCN(CC1CC1)C(=O)Cn1cnc2scc(-c3ccc(C)s3)c2c1=O,7,5
O=C(C1CC1)N1C[C@H]2CN(S(=O)(=O)c3cccs3)C[C@@]2(C(=O)O)C1,2,-1
CC1CCCC(OCC(=O)Nc2cc(-n3cnnn3)ccc2F)C1 (stereo not given),5,1
CCC(C)c1ccc(S(=O)(=O)NCc2nccc3ccccc23)cc1 (stereo not given),4,2
CC(C)Cn1c(-c2ccco2)n[nH]c1=S,-1,1
O=S(=O)(NC1CCN(CC(O)c2ccc3c(c2)OCO3)CC1)c1cccs1 (stereo not given),-6,-5
CCCCCC(=O)N(CCc1ccccc1)CC(=O)Nc1cc(C(C)(C)C)nn1-c1ccccc1Cl,13,16
COc1ccc(-c2cccc(-n3cncc3C(=O)NCc3c(F)cccc3F)c2)cc1OC,1,-5
CCCSc1ncccc1C(=O)Nc1ccccc1Nc1ccccc1,4,-1
O=C(NCc1nnnn1C1CCCCC1)c1c(F)cccc1Cl,6,4
C=C(C)Cn1c(C2CC(=O)N(CCc3ccccc3)C2)nc2ccccc21 (stereo not given),-4,27
CCOc1ccc(-c2nc(CN(C)Cc3nonc3C)c(C)o2)cc1,5&-9,3&-15
COc1ccccc1CN(Cc1ccc2c(c1)OCO2)Cc1nc(C(=O)Nc2ccc(F)cc2)co1,17,17
O=C(Cc1cccs1)NCCn1ncc2c(N3CCN(c4ncccn4)CC3)ncnc21,0,-1
O=C(COc1ccc(Cl)cc1Cl)N=Nc1c(O)n(CO)c2ccccc12,-3,-2
Cc1nc(CN(C)C(=O)Cc2cc3c(cc2Cl)OCCO3)no1,6,2
COc1cccc(CNC(=O)CC2CSc3nc4c(c(=O)n32)CCCC4)c1 (stereo not given),-1,-2
C=CCn1c(C2CCCCC2)n[nH]c1=S,25&-7,22&-3
Nc1cc(-c2ccc(Cl)cc2)nn1-c1ccc(C(=O)NCCOc2ccccc2)cc1,-6,-8
COc1ccc(/C=C/CN2CCC(C(=O)NC(c3ccc4c(c3)OCO4)c3ccccn3)CC2)cc1 (stereo not given),-15,-19
COc1ccc(S(=O)(=O)Nc2ccc3c(c2)N(S(=O)(=O)c2ccccc2)CCC3)c(OC)c1,-3,5
CCOC(=O)C1(CC2CC2)CCN(Cc2ccc(OC)cc2F)CC1,4,4
Cc1nc2c(c(=O)[nH]1)CCN(C(=O)C1(c3cccs3)CC1(C)C)C2 (stereo not given),8,4
COc1ccccc1CN(CCc1c[nH]c2ccccc12)Cc1nc(C(=O)O)co1,-11,-3
N#Cc1cnn(C(=O)CCc2cccc(Cl)c2)c1N,-23,-25

Looked up by structure from the list above (six):
canonical_smiles,NPYLR7 agonist,NPYLR7 agonist max-min
O=C(COc1ccc(Cl)cc1Cl)N=Nc1c(O)n(CO)c2ccccc12,-3,-2
C=C(C)Cn1c(C2CC(=O)N(CCc3ccccc3)C2)nc2ccccc21 (stereo not given),-4,27
O=S(=O)(NC1CCN(CC(O)c2ccc3c(c2)OCO3)CC1)c1cccs1 (stereo not given),-6,-5
N#Cc1cnn(C(=O)CCc2cccc(Cl)c2)c1N,-23,-25
COc1ccccc1CN(CCc1c[nH]c2ccccc12)Cc1nc(C(=O)O)co1,-11,-3
COc1ccccc1CN(Cc1ccc2c(c1)OCO2)Cc1nc(C(=O)Nc2ccc(F)cc2)co1,17,17

Next part
canonical_smiles,NPYLR7 agonist,NPYLR7 agonist max-min
Cc1[nH]c2ccc(F)cc2c1CCN=C(N)NS(=O)(=O)c1ccc(F)cc1,-4,2
Cc1nc(CCNS(=O)(=O)c2ccc(Cl)nc2Cl)cs1,14,11
COc1cc(CN(C)Cc2oc(CO)cc(=O)c2O)ccc1OC(F)F,11,6
COc1cccc(-c2cnc3c(NC=O)cc(-c4ccc(OC)cc4OC)cn23)c1,-5,-12
Cc1ccnc(Nc2ccc(NCCNC(=O)COc3ccccc3)nn2)c1,5,2
Cn1nccc1-c1ccc2c(n1)C(=O)N(C1(C(=O)NCCN3CCOCC3)CC1)C2,6,9
O=C(CCNS(=O)(=O)c1cccs1)N1CCN(C(=O)c2ccco2)CC1,7,5
CNc1ncccc1C(=O)N1CCCC(Nc2ccc(OC)c(OC)c2)C1 (stereo not given),5,2
Cc1cc(OC(F)F)c(C(=O)NC2CCS(=O)C2)s1 (stereo not given),21,21
Cc1[nH]nc(-c2ccc(OCCN3CCC(C(N)=O)CC3)cc2O)c1-c1ccc(Br)cc1,-5,-8
CCOC(=O)C1CCN(C(=O)CSc2nc(Cl)cc(N3CCN(c4ccccc4F)CC3)n2)CC1,-2,7
COc1ccc(-c2nnn(CN3CCc4sccc4C3c3cccs3)n2)cc1OC (stereo not given),1,7
Cc1ccc(C(=O)Nc2ccc3c(c2)CCC(=O)N3CC(C)C)cc1C,11,5
CCc1nc(CN2CCCC2c2nc3ccc(C)cc3[nH]2)no1 (stereo not given),3,4
O=C(Cc1ccc2c(c1)OCO2)N1CCC(n2cnc3ccccc32)CC1,7,14
O=c1c2cnc3nc(-c4ccncc4)nn3c2ccn1CC1CCCO1 (stereo not given),6,10
COc1cc(OC)cc(N2CCN(C(=O)Nc3ccc(C)cc3)C(C)C2=O)c1 (stereo not given),22,25
CCN1CCC(N(C)C(COC)c2ccccn2)CC1 (stereo not given),22,12
COc1ccc(C=CC(=O)N2CC(C)OC(C)C2)cc1S(=O)(=O)N1CCOCC1 (stereo not given),10,16
Cn1c(N=Nc2c(-c3ccccc3)n(C)c3ccccc23)nc2ccccc21,-8,-13
OCCn1c(CN2CCCCCCC2)nc2ccc(Cl)cc21,0,0
CCOC(=O)c1cc(C#N)c(SCC(=O)N2CCC(C)CC2)nc1C,-1,-5
CCn1ccnc1CN1CCOC(Cc2ccccc2Cl)C1 (stereo not given),4,4
CC(=O)Nc1ccc(C(=O)N(C)CCC2(O)CCCC2)c(C)c1,7,1
CCOc1ccc(-c2csc(-n3nc(C)cc3NC(=O)c3ccco3)n2)cc1,-10,-10
CN(C)CC1(O)CCCN(Cc2cc(Cl)ccc2OCC(=O)O)C1 (stereo not given),3,1
CN(C)CCNC(=O)c1cccc(-c2ccc3nnc(-c4cscn4)n3c2)c1,3,-7
Cc1c(C(=O)NCc2cccs2)sc(=O)n1Cc1ccc(C(=O)c2ccccc2)cc1,-1,-3
C=CCSc1nnc2c(n1)OC1(CCCC1)Nc1ccccc1-2,5,2
CCOC(=O)C1(Cc2ccccc2C)CCCN(C(=O)C2CCN(C(=O)N(C)C)CC2)C1 (stereo not given),1&4,-2&8
CC(C)(C)c1cc2nc(-c3ccc(F)cc3)cc(C(=O)NCCc3ccccn3)n2n1,-7&13,1&15
O=C(C=Cc1ccc([N+](=O)[O-])cc1)Nc1ccccc1C(=O)N1CCCC1,5,2
Cc1cc(OCCn2cnc3sccc3c2=O)ccc1C(C)C,-3,-1
CC1CN(C(c2ccco2)C2Sc3ncnn3C2=O)CC(C)O1 (stereo not given),-2,-2
C#CC1(OCC(O)CN2CCN(CC)CC2)CCCCC1 (stereo not given),-1,15
Cc1nc(N2CCC(NCc3cccc4[nH]ccc34)CC2)nc2ccc(F)cc12,16,1
CN(C(=O)c1ccccc1N1CCC(NS(=O)(=O)c2ccc(Cl)cc2)CC1)C1CCCCC1,-1,-1
CC(=O)N1CCc2cc(NC(=O)C3(C)CCN3Cc3ccc(C(C)C)cc3)ccc21 (stereo not given),8,7
NC(=O)c1cccc(-c2ccc3c(c2)N(CCN2CCOCC2)C(=O)COC3)c1,8,5
CCN1CCN(c2ccc(NC(=O)c3ncn[nH]3)cc2Cl)CC1,13,4

Part of the list above, with values under each structure.
Every second line gives: NPYLR7 agonist | NPYLR7 agonist max-min
> CCOc1ccc(-c2csc(-n3nc(C)cc3NC(=O)c3ccco3)n2)cc1
→ -10 | -10
> CN(C)CC1(O)CCCN(Cc2cc(Cl)ccc2OCC(=O)O)C1 (stereo not given)
→ 3 | 1
> CN(C)CCNC(=O)c1cccc(-c2ccc3nnc(-c4cscn4)n3c2)c1
→ 3 | -7
> Cc1c(C(=O)NCc2cccs2)sc(=O)n1Cc1ccc(C(=O)c2ccccc2)cc1
→ -1 | -3
> C=CCSc1nnc2c(n1)OC1(CCCC1)Nc1ccccc1-2
→ 5 | 2
> CCOC(=O)C1(Cc2ccccc2C)CCCN(C(=O)C2CCN(C(=O)N(C)C)CC2)C1 (stereo not given)
→ 1&4 | -2&8
> CC(C)(C)c1cc2nc(-c3ccc(F)cc3)cc(C(=O)NCCc3ccccn3)n2n1
→ -7&13 | 1&15

Next part
canonical_smiles,NPYLR7 agonist,NPYLR7 agonist max-min
CCOc1ccc(NC(=O)N(Cc2ccc(OS(C)(=O)=O)cc2)Cc2ccco2)cc1,-4,8
c1ccc(Nc2nc3ccccc3n3nnnc23)cc1,3,2
Cc1cc(C(=O)N(CC2CCCO2)c2nc3c(F)cc(F)cc3s2)n(C)n1 (stereo not given),5,3
COCCN(Cc1cccc(OS(=O)(=O)c2ccc(OC)cc2)c1)C(=O)C1CCC1,15,25
N#CCSc1ccc2nc(-c3ccccc3)cn2n1,5,4
O=C1NC(=O)C(=C2CCCCC2)S1,9,6
O=C1CCC(Cc2nc(-c3ccccn3)no2)N1 (stereo not given),17,6
Fc1ccc(CNCC2CC(c3ccccc3Cl)=NO2)c(F)c1 (stereo not given),-2,-5
C=CCSc1nnc(NC(=O)C(CC)c2ccccc2)s1 (stereo not given),-4,-18
CC(=O)c1sc(N2N=C3CCCCC3C2c2ccccc2)nc1C (stereo not given),-4,-7
Cc1nc2scc(C)n2c(=O)c1NC(=O)Cc1ccccc1,5,1
CCOc1c(Br)cc(C(=O)NNC(=O)c2ccc(C)o2)cc1OC,1,3
O=C(c1cnc(CN2CCCC2)s1)N1C[C@H]2CC=CC[C@H]2C1,5,4
COc1cn(CC(=O)Nc2nc(C)cs2)c(CSc2nnnn2C)cc1=O,-7,-10
c1cncc(-c2nc(NCCN3CCOCC3)c3ccccc3n2)c1,1,5
O=C(CN1CCN(S(=O)(=O)c2ccccc2Cl)CC1)NC1CCCCC1,-1,0
COc1ccc2cc(C(C)C(=O)N(C)Cc3nc4ccccc4c(=O)[nH]3)ccc2c1 (stereo not given),-3,-3
CCC#CCN1Cc2ccccc2N(CC(O)C(F)(F)F)CCC1=O (stereo not given),1,1
C=CCn1c(NCCCCCC)nc2c1c(=O)[nH]c(=O)n2C,-7,2
O=C(NCCN1CCN(c2ccc(F)cc2)CC1)c1cc2c(F)cccc2[nH]1,2,11
N#Cc1ccccc1OCC(=O)NC1CCCCCCC1,-5,-5
O=C(NC1CCSc2ccc(F)cc21)C1=CC=CN2CCS(=O)(=O)N=C12 (stereo not given),2,-4
O=C(CCn1cnnc1)N1C[C@@H]2[C@@H]3CC[C@@H](C3)[C@@H]2C1,4,1
COc1ccc(-c2cc(C3CCN(Cc4cnc(N)nc4)C3)ccn2)cc1C (stereo not given),8,5
Cn1c(SCC(=O)c2ccccc2)nnc1-c1cccs1,-5,0
CC(C)(C)C(=O)Nc1nnc(SCC(=O)c2cccc(C#N)c2)s1,26,38
COc1ccccc1Cn1ccc2c(cnc3nc(C)nn32)c1=O,1,4
CCOC(=O)N1CCC(NC(=O)c2csc(Nc3ccccc3)n2)CC1,4,-2
CC(CCc1ccccc1)NC(=O)c1cncn1-c1ccc(-c2cc(C(F)(F)F)cc(C(F)(F)F)c2)cc1 (stereo not given),14,6
CC(C)(CC1Cc2ccccc2C1)NC(=O)C1CC2(CCNCC2)CN1 (stereo not given),7,1

Bioassay records from PubChem.
